Screens as filed in PubChem BioAssay.
BJeLR lethal – BJeLR cell viability loss; 300,000 compounds, 0.17% hits; inhibition, % (no concentration beside the values); BJeLR (HRASV12) viability, CellTiter-Glo ATP luminescence, 48 h; reference of the scale not given here;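 active means replicate mean above 50%; inconclusive means above 50% but judged a plate artefact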;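 further: 50 nL library stock added to about 25 µL; numbers are from one replicate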
Bead autofluor – compound fluorescence in toxin protease inhibitor counterscreen. 360,000 compounds, 3.1% hits. AID 624483. fluorescence intensity (test concentration not listed). compound autofluorescence counterscreen, microsphere flow cytometry; active compounds read high;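 active means at least 3 SD above the mean of all compounds, about 16000 in these data; inconclusive means too few beads counted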;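 further: 100 nL of 1 mM stock went into each well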
RN4220 kill – S. aureus RN4220 growth inhibition. OD600, 16 h. inhibition, % (concentration not given with the values). 330,000 compounds, 0.33% hits;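 active means z-score of -3 or lower and OD600 up to 0.18 on both plates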;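 further: plate controls were untreated cells for no effect and reference antibiotic for full effect; stock transfer was 100 nL into about 80 µL; one replicate is shown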
PrP 5UTR inh – suppresses PrP 5' UTR mRNA reporter expression | cell-based PrP 5' UTR mRNA reporter, plate reader | inhibition, % (test concentration not listed) | 340,000 compounds, 0.35% hits | AID 488862;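 active means every replicate at 50% or more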;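 further: 0 = median of the neutral control wells; tested in H4 reporter cells; numbers are from one replicate; inactives centre near -14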
Sa ugtP lethal – kills S. aureus RN4220 lacking UgtP; growth inhibition, % (concentration not given with the values); S. aureus RN4220 ugtP deletion, OD600 growth, 16 h; some inactives read as strong as hits; 330,000 compounds, 0.54% hits;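 active means z-score under -3 and OD600 up to 0.15 on both plates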;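 further: plate controls were untreated wells for no effect and antibiotic for full effect; wells of about 80 µL received 100 nL stock; the first replicate is given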
Mtb hypoxia rep – inhibitors of hypoxia-regulated fluorescent reporter in Mycobacterium tuberculosis | M. tuberculosis hypoxia-regulated fluorescent reporter, fluorescence | fluorescence inhibition, % (test concentration not listed) | 300,000 compounds, 0.1% hits | AID 1159583;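 active means 35 to 45% if threefold the growth effect, above 45% if 1.5-fold the growth effect; inactive means the rest, general growth blockers included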;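 further: wells of about 50 µL received 100 nL stock; 0% = vehicle wells and 100% = reference inhibitor wells; whole bacteria with a GFP reporter of the hypoxia response; strong numbers were not always called active; many hits fall short of the cut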
Mtb hypoxia rep growth – further read-out of Mtb hypoxia rep, marked with its call; growth inhibition, %; measured here: M. tuberculosis growth (absorbance);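 0% = vehicle and 100% = reference antibiotic; read after six days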
* = called active by the depositor; ? = inconclusive; · = not tested or not shown.

SMILES	BJeLR lethal	Bead autofluor	RN4220 kill	PrP 5UTR inh	Sa ugtP lethal	Mtb hypoxia rep	Mtb hypoxia rep growth
O=C1CCc2cc(S(=O)(=O)NC3CCCCC3)ccc2N1	·	3477	-0.4	-13	-4	-8	3
Cc1ccc(OCC(=O)c2ccc(Cl)s2)c([N+](=O)[O-])n1	-1	4759	4.8	-20	11	4	7
COc1ccc(CNC(=O)N2CCc3ccccc3C2)cc1Cl	-7	3862	-7.7	·	11	-3	6
CCNC(=O)COC(=O)c1cc(-c2ccc(OC)cc2)nc2ccccc12	2	10765	6.6	-4	0	3	11
Cn1c(O)c(/C=C/C=Nc2ccccc2)c(=O)n(C)c1=S	5	4507	1.8	-47	4	3	1
C#CCn1c(=NC(=O)CSCC(=O)N2CCOCC2)sc2ccccc21	-2	2553	-3.7	-11	-4	-1	-6
O=C(CC1SC(N2CCCCC2)=NC1=O)Nc1ccc(C(=O)NCCc2ccc(F)cc2)cc1 (stereo unspecified)	·	6489	4.7	-12	14	8	3
Cc1cnc(NC(=O)CSc2ccccc2)s1	-7	10977	4.4	·	0	10	4
CS(=O)(=O)N(CCc1ccccc1)CC(=O)NCc1ccc(Cl)cc1	6	4396	-1.5	-25	-1	3	-5
COC(=O)C(CC(=O)c1ccc(Cl)cc1)c1ccc(C(C)C)cc1 (stereo unspecified)	1	2060	-11	-5	64	·	·
CCOc1ccc(S(=O)(=O)N2CCCCC2)c(C)c1C	5	4475	4.1	-13	6	10	10
O=C(CN1CCN(c2ccccc2O)CC1)Nc1ccnn1C1CCCC1	·	3150	6.5	12	9	-1	-4
COC(=O)c1ccccc1SC1CC(=O)N(c2cccc(C)c2)C1=O (stereo unspecified)	3	2157	-0.3	-18	0	8	1
CCOC(=O)C1=C(C)NC(=O)/C1=C\N(C)C	7	4931	0.4	-9	4	-1	8
CCOC(=O)c1c(N=CC2C(=O)CC(C)(C)CC2=O)sc(C)c1C	·	·	7.5	·	7	-3	3
COc1ccccc1C(=O)N/C(=C\c1ccc(Br)cc1)C(=O)NCCO	-6	4100	-3.4	-19	-15	-1	1
Cc1ccc(-c2csc(NC(=O)CCNC(=O)c3ccccc3Cl)n2)cc1	0	2526	-3.9	-9	-6	-1	7
Cc1nc(NC(=O)c2ccco2)sc1C(=O)Nc1ccc(Br)cc1	2	5065	-1.0	-4	-17	-2	7
CCOc1ccc(NC(=O)c2sc3nc(N4CCOCC4)c4c(c3c2N)CCCC4)cc1	-4	4253	7.3	-11	11	-8	-12
O=[N+]([O-])c1cccc(Cl)c1NCCNS(=O)(=O)c1ccccc1	0	4824	8.9	-16	-6	22	10
Cc1ccc(C)c(NC(=O)CSc2nc(C)cc(C)c2C#N)c1	-1	5607	5.2	-22	8	2	-2
C[C@@]12C(=O)N(c3cccc(Cl)c3)C(=O)N1C(c1ccc(Cl)cc1)C1C(=O)N(C3CCCCC3)C(=O)C12 (stereo partly specified)	·	·	2.8	·	-25	-3	-4
OC(COc1ccccc1)CN1CCCCCC1 (stereo unspecified)	10	4457	6.1	-4	-3	11	-1
COc1ccc(-c2noc(CN(C)C(=O)CCN3C(=O)[C@H]4CC=CC[C@H]4C3=O)n2)cc1	-1	4399	3.3	-4	7	3	-8
Cc1cccc(CSCC(=O)NCc2ccc(S(N)(=O)=O)cc2)c1	-2	4491	4.1	-2	1	8	-1

Remaining list, next part:
SMILES	BJeLR lethal	Bead autofluor	RN4220 kill	PrP 5UTR inh	Sa ugtP lethal	Mtb hypoxia rep	Mtb hypoxia rep growth
Cc1cc(=O)oc2c(C)c(OCC(=O)NCC3CCC(C(=O)O)CC3)ccc12 (stereo unspecified)	6	5779	-1.7	-12	-25	·	·
CC(=O)c1cccc(N(CC(=O)Nc2ccc(F)cc2)S(C)(=O)=O)c1	1	2202	7.6	-14	6	5	2
CCC(CC)=N/N=C/c1c(O)n(CC)c2cc(C3=NNC(=O)CC3)ccc12	2	4857	·	-6	·	·	·
O=C(c1ccc(Cn2ccc([N+](=O)[O-])n2)cc1)N1CCN(Cc2ccccc2)CC1	-2	·	5.4	-21	2	16	9
Cc1ccc(S(=O)(=O)Cn2nnnc2C(CC(C)C)N2CCN(C(=O)c3ccco3)CC2)cc1 (stereo unspecified)	2	2295	4.6	-7	2	7	4
Cc1ccc(NC(=O)CSc2nn(-c3ccc(Cl)cc3)c(=S)s2)cc1S(=O)(=O)N(C)C	2	2424	-6.7	0	-29	-3	1
CCN1CCc2c(OCC(=O)Nc3cccc(C)c3)cccc2C1=O	7	4283	5.1	-18	0	2	5
COc1ccc(CCNC(=O)CC2SC(=NCCC(C)C)NC2=O)cc1OC (stereo unspecified)	-4	2519	5.4	-29	6	5	1
Nc1cccc2c(O)cc(S(=O)(=O)O)cc12	·	2788	2.9	10	4	17	8
N#CC1(NC(=O)COC(=O)Cn2[nH]c(=O)c3ccccc3c2=O)CCCCC1	-2	6275	-1.3	-8	0	-9	5
CC(=O)Nc1ccc(OCCF)cc1	-4	3398	2.8	-16	1	4	9
CCCc1nnc(NC(=O)CCC(=O)N2CCN(c3ccccn3)CC2)s1	-9	14399	2.5	2	-1	-9	7
Cc1cccc2cc3ccccc3nc12	0	4287	4.2	-16	16	12	17
COC(=O)c1cccc(S(=O)(=O)N2CCC(c3nc4ccccc4o3)CC2)c1	6	5750	3.8	1	4	-4	7
CCOc1ccc(N=Nc2c(C)noc2C)cc1	·	3109	13	-16	6	-5	-2
CC1=C(C(=O)OCC(C)C)C(c2ccc(F)cc2)NC(=O)N1 (stereo unspecified)	5	5855	5.9	-22	10	12	4
CC1(C)CC(=O)C=C(NCC(O)c2ccccc2)C1 (stereo unspecified)	0	3794	-3.9	-17	-1	5	2
COc1ccc(/C=N/n2cnnc2SCc2ccccc2)cc1	5	4582	·	-18	·	·	·
Cc1c(NS(=O)(=O)N2CCCC2)c(=O)n(-c2ccccc2)n1C	-2	22285*	-1.6	-3	-7	-3	2
CC(=O)N1CCN(C(=O)COc2ccc3oc4c(c3c2)CCCC4)CC1	-6	4891	4.8	-18	-2	6	8
O=C(O)Cn1c(COc2ccc(Cl)cc2)nc2ccccc21	-9	5009	-2.8	-20	-10	-12	5
CC(=O)Nc1ccc(NC(=O)Cc2ccc(F)cc2)cc1	-3	·	5.1	·	13	8	2
CCN(CC)S(=O)(=O)c1ccc(N2CCOCC2)c(NC(=O)c2ccc(F)cc2)c1	2	4168	7.2	-32	-6	12	9
Cc1cc(C)nc(N=C(N)Nc2ccc(-c3ccccc3)cc2)n1	·	·	1.8	·	-1	-8	5
COc1ccc(C)cc1NC(=S)N1CCOCC1	-7	6032	-0.2	-34	-1	13	9

An excerpt of these results, with two lines to a compound:
Values in the order: BJeLR lethal | Bead autofluor | RN4220 kill | PrP 5UTR inh | Sa ugtP lethal | Mtb hypoxia rep | Mtb hypoxia rep growth
> Cc1cc(=O)oc2c(C)c(OCC(=O)NCC3CCC(C(=O)O)CC3)ccc12 (stereo unspecified)
→ 6 | 5779 | -1.7 | -12 | -25 | · | ·
> COc1ccc(C)cc1NC(=S)N1CCOCC1
→ -7 | 6032 | -0.2 | -34 | -1 | 13 | 9

The list continues:
SMILES	BJeLR lethal	Bead autofluor	RN4220 kill	PrP 5UTR inh	Sa ugtP lethal	Mtb hypoxia rep	Mtb hypoxia rep growth
N#C/C(=C/c1ccc(Sc2nc3ccccc3[nH]2)o1)c1cccc(Br)c1	-9	2873	-0.7	-21	-3	·	·
Cc1ccc(Cn2ccc(NC(=O)c3cc(-c4ccc5c(c4)OCO5)on3)n2)cc1	-3	10162	2.8	-16	0	5	13
O=C(CSc1ncn[nH]1)c1cc2ccccc2o1	-2	4391	3.6	-8	3	-1	0
Cc1cccc(NC(=O)CNC(=O)c2cccc(-n3cccc3)c2)c1C	-5	?	1.6	-5	-4	-4	12
COc1ccc(CNC(=O)Cn2c(=O)n(CC(=O)N3CCCCC3)c(=O)c3sccc32)cc1	4	4682	1.2	-11	7	0	-5
O=c1c2ccccc2nc2oc3ccccc3n12	8	3960	-1.1	-63	-3	-9	2
COc1cccc(-c2c(C(=O)N/N=C(\C)c3cccs3)nnn2-c2nonc2N)c1	-2	4285	·	-2	·	·	·
COc1cc(/C=C2/SC(=S)N(CCC(=O)Nc3ccc(C(=O)O)cc3)C2=O)cc(OC)c1OC	-4	4473	-5.4	4	-5	-4	-2
CCS(=O)(=O)N1CCC(C(=O)NCc2cccs2)CC1	-11	7964	2.2	13	1	12	6
O=C(CSCc1cccc(F)c1)NCc1ccccc1	-18	4528	0.9	-44	2	18	13
CCCn1c(C)cc(C(=O)CN2C(=O)c3ccccc3C2=O)c1C	-7	6138	4.3	-26	3	13	11
CCN(CC)CCNC(=O)CCCCn1c(=S)[nH]c2c([nH]c3ccc(OC)cc32)c1=O	-1	11060	-2.5	-21	4	2	5
CCn1cc(C(=O)NCCO)c(=O)c2cc(F)c(N3CCN(C)CC3)cc21	-1	5368	37	-36	80	4	-3
CC1=CCC(C(C)(C)NC(=O)c2ccccc2)C/C1=N\O (stereo unspecified)	4	9709	·	-20	·	·	·
Cc1ccc(NC(=O)N2CCCCC2)cc1NC(=O)N1CCCCC1	-1	2849	1.5	-35	1	13	9
CCN(CC)c1ccc(NC(=O)c2cnn(CC)c2)cc1	0	2386	-15	-30	-7	·	·
Cc1ccc(NC(=O)N2CCC(C(=O)NCC(C)C)CC2)cc1	-5	5801	2.4	-41	-4	0	9
O=S(=O)(NCCNS(=O)(=O)c1ccccc1)c1ccccc1	7	22947*	0.1	4	-2	-2	1
CCOC(=O)c1c(C)c(C(=O)NCCc2ccc(S(N)(=O)=O)cc2)c(C)n1CC	8	22631*	5.2	-18	8	5	5
CCn1nc(NS(=O)(=O)c2ccc(C)cc2)c2cc3ccccc3nc21	6	6663	9.0	-18	-1	15	9
Cc1cc(NC(=O)/C(C#N)=C/c2ccco2)n(-c2ccccc2)n1	7	2501	3.7	-2	-2	3	11
COc1ccc([C@H]2CC(=O)C=C(c3ccccc3)C2)cc1	·	3551	-6.1	-10	-3	7	14
O=C(O)/C=C\c1cn(-c2ccccc2)nc1-c1cc2ccccc2o1	1	4620	30	-18	19	6	8
CC(=O)c1cccc(NC(=O)C2CC(=O)N(c3ccc4c(c3)OCCO4)C2)c1 (stereo unspecified)	·	3723	1.8	8	5	-4	1
CCCCCc1cc(=O)oc2c(C(CCN(CC)CC)c3cc(OC)c(OC)c(OC)c3)c(OC)cc(OC)c12 (stereo unspecified)	1	3984	-6.8	0	-35	9	19
CCOC(=O)C(C)Sc1nc(-c2ccccc2)nc2ccc(F)cc12 (stereo unspecified)	-4	8211	-0.5	-16	66	0	-5
Cc1c(C)c2ccc(OCC(=O)NCCN3CCOCC3)cc2oc1=O	-4	5213	2.7	-8	2	9	1

No new results follow: an excerpt of the list.
SMILES	BJeLR lethal	Bead autofluor	RN4220 kill	PrP 5UTR inh	Sa ugtP lethal	Mtb hypoxia rep	Mtb hypoxia rep growth
N#C/C(=C/c1ccc(Sc2nc3ccccc3[nH]2)o1)c1cccc(Br)c1	-9	2873	-0.7	-21	-3	·	·
Cc1ccc(Cn2ccc(NC(=O)c3cc(-c4ccc5c(c4)OCO5)on3)n2)cc1	-3	10162	2.8	-16	0	5	13
O=C(CSc1ncn[nH]1)c1cc2ccccc2o1	-2	4391	3.6	-8	3	-1	0
Cc1cccc(NC(=O)CNC(=O)c2cccc(-n3cccc3)c2)c1C	-5	?	1.6	-5	-4	-4	12
COc1ccc(CNC(=O)Cn2c(=O)n(CC(=O)N3CCCCC3)c(=O)c3sccc32)cc1	4	4682	1.2	-11	7	0	-5
O=c1c2ccccc2nc2oc3ccccc3n12	8	3960	-1.1	-63	-3	-9	2
COc1cccc(-c2c(C(=O)N/N=C(\C)c3cccs3)nnn2-c2nonc2N)c1	-2	4285	·	-2	·	·	·
COc1cc(/C=C2/SC(=S)N(CCC(=O)Nc3ccc(C(=O)O)cc3)C2=O)cc(OC)c1OC	-4	4473	-5.4	4	-5	-4	-2
CCS(=O)(=O)N1CCC(C(=O)NCc2cccs2)CC1	-11	7964	2.2	13	1	12	6
O=C(CSCc1cccc(F)c1)NCc1ccccc1	-18	4528	0.9	-44	2	18	13
CCCn1c(C)cc(C(=O)CN2C(=O)c3ccccc3C2=O)c1C	-7	6138	4.3	-26	3	13	11
CCN(CC)CCNC(=O)CCCCn1c(=S)[nH]c2c([nH]c3ccc(OC)cc32)c1=O	-1	11060	-2.5	-21	4	2	5

This is a random part of the collection; any-hit rate near 4%.
